Beta cell apopt: inhibitors of cytokine-induced beta cell apoptosis, primary screen, luminescence; INS-1E cytokine-induced death, ATP luminescence, 48 h; percent of positive-control rescue, neutral wells zero; protection from apoptosis, % (concentration not given with the values); hit rate 0.8% among 300,000;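 active means all replicates at 75% or more, or half of them and the mean; inconclusive means half reach 75% but not the mean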;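 further: 0% = cytokine-treated negative control wells and 100% = positive control rescue; higher means more ATP so stronger rescue from cytokine killing; wells of about 40 µL received 100 nL stock; the first replicate is given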
Beta2AR agonist: beta2AR agonists driving receptor internalization, primary screen, cell-based, FAP fluorogen, flow cytometry; AID 504454, 2011; Am2.2-beta2AR cells; reference of the scale not given here; hit rate 0.43% among 340,000; Beta-2 adrenergic receptor (Homo sapiens), P07550; response, % (test concentration not listed);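 active means response above a set limit, near 3 SD of response in nonfluorescent compounds, cut at about 42% in these data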;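 further: stock transfer was 100 nL into about 11 µL; a reference agonist was the positive control; negative values mostly stem from fluorescent compounds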
Target sequence (P07550 whole entry, looked up): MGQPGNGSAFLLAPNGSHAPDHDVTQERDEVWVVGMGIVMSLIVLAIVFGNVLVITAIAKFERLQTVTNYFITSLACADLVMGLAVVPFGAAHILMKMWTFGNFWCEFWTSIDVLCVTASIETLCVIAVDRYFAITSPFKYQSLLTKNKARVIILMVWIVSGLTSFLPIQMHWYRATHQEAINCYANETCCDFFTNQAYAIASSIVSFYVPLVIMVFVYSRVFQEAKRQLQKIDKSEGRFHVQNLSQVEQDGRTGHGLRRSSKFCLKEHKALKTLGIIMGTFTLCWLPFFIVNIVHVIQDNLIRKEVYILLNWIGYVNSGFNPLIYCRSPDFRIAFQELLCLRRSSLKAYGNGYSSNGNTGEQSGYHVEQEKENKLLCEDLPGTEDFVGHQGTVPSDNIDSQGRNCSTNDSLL
RanGTP-Impb inh: inhibitors of RanGTP-importin-beta interaction, primary screen, biochemical, FRET, CFP-Ran, YFP-importin-beta, homogeneous; inhibition, % (no concentration beside the values); AID 2216, 2009; Ran GTPase (GTP-bound) - importin-beta complex; hit rate 1.1% among 300,000; cell-free CFP-Ran/YFP-importin-beta FRET ratio;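 active means most replicates above 15%; inconclusive means exactly half above 15%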;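 further: 0% = DMSO wells and 100% = Ran loaded with GDP instead of GTP; wells of about 40 µL received 100 nL stock; the first replicate is given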
Calb FLC: C. albicans growth inhibition with fluconazole, primary screen, CaCi-2 strain, Alamar Blue fluorescence | growth inhibition, % (test concentration not listed) | hit rate 0.57% among 300,000 | AID 1979, 2009 | C. albicans CaCi-2 (fluconazole-resistant clinical isolate) + fluconazole, 48 h;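 active means most replicates above 75%; inconclusive means exactly half above 75%; inactive means most below 75%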;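 further: all wells also contain fluconazole at 8 µg/ml as a sub-toxic cotreatment; 0% = median of DMSO wells and 100% = median of geldanamycin control wells; wells of about 8 µL received 7.5 nL stock; the first replicate is given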
T cruzi repl: inhibitors of intracellular T. cruzi growth, primary screen, luminescence, NIH3T3 host cells. T. cruzi beta-gal in NIH3T3, 90 h. AID 1885, 2009. inhibition, % (concentration not given with the values). hit rate 1.4% among 300,000;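 active means mean inhibition across valid replicates above about 55%, limit read from the data; inconclusive means mean below that limit but half or more replicates reach it; inactive means mean below it, under half of replicates reach it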;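 further: signal also drops with host cell toxicity which is not excluded here; 0% = plate median of DMSO wells and 100% = zero luminescence signal; higher percent means less beta-gal luminescence so fewer parasites; stock transfer was 50 nL into about 50 µL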
Bfl-1 A1 inh: caspase 3/7 activation in MEF A1-2A-BIM cells, primary screen, A1 inhibitor project, cell-based, luminescence, HTS; Caspase-Glo 3/7 luminescence, 3 h; percent of clofoctol response, vehicle zero; caspase activation, % (test concentration not listed); hit rate 0.066% among 330,000;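 active means over half of replicate activation scores above 10%, or exactly half above 10 with the replicate mean above 10; inconclusive means replicate mean below 10 yet half the replicates above 10; inactive means over half of replicates below 10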;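 further: wells of about 30 µL received 50 nL stock; many hits fall short of the cut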
LANA-H2B inh: blockers of LANA interaction with H2A/H2B – biochemical, FP readout, HTS, primary screen. Protein LANA1 (Human herpesvirus 8 type P (isolate GK18)), Q9QR71. cell-free LANA-H2A/H2B peptide, fluorescence polarization. inhibition, % (no concentration beside the values). hit rate 0.6% among 320,000. AID 2629, 2010; in the data active means inhibition mostly above about 10%, no sharp cut-off; inactive means mostly below about 6.7%;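 further: stock transfer was 7.5 nL into about 10 µL; 0% = median of vehicle wells and 100% = median of positive control wells; one replicate is shown; the record names a cut of 25% in any replicate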
UCH37 DUB inh: inhibitors of human UCH37 deubiquitinase, primary screen, biochemical, Ub-AMC cleavage, fluorescence; Ubiquitin carboxyl-terminal hydrolase isozyme L5 (Homo sapiens), Q9Y5K5; purified proteasome/UCH37; inhibition, % (concentration not given with the values); hit rate 0.33% among 330,000;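 active means mean of two replicates above 20%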;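 further: 0% = compound-free wells with enzyme and 100% = wells lacking proteasome; stock transfer was 100 nL into about 20 µL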
Target sequence (Q9Y5K5 whole entry, looked up): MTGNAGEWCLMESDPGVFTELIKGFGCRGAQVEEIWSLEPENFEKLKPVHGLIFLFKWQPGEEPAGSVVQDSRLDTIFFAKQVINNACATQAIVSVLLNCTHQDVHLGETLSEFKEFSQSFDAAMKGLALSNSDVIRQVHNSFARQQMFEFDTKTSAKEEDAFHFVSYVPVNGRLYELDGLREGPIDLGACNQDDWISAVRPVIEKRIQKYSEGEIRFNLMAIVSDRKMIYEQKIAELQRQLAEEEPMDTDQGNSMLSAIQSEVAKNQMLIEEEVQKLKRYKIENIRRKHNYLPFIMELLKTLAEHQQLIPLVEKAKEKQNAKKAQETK
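Signal – fluorescence, ex 355 nm, em 460 nm · System – Proteasome-bound UCH37 · Input – 0.15 nM proteasome as dispensed · Timing – 30 min preincubation with enzyme, 25 min cleavage at room temperature · Read-out basis – percent inhibition of cleavage signal versus uninhibited and no-proteasome wells · Medium – Tris-HCl pH 7.4 with ATP-MgCl2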
The depositor's hits bear a star; u = inconclusive; x = no result given; + = active, no number.

SMILES | Beta cell apopt | Beta2AR agonist | RanGTP-Impb inh | Calb FLC | T cruzi repl | Bfl-1 A1 inh | LANA-H2B inh | UCH37 DUB inh
CC(C(=O)OCC(=O)Nc1ccc2c(c1)OCO2)N1C(=O)c2ccccc2C1=O (stereo unspecified) | -3.9 | -9.7 | 3.6 | 28.6 | 4.7 | 0.5 | -1.4 | 5.2
CCOC(=O)OC(C)OC1=C(C(=O)Nc2ccccn2)N(C)S(=O)(=O)c2ccccc21 (stereo unspecified) | 3.6 | x | 2.6 | x | -20.4 | 0.7 | -4.3 | 1.9
COc1cc(C2NC(=O)NC(C)=C2C(=O)NCc2ccccc2)c(Cl)cc1O (stereo unspecified) | 1.4 | -2.3 | 2.6 | -1.0 | -28.2 | -0.7 | -0.1 | 0.9
O=C(Nc1ccc2c(c1)OCO2)c1sc2cc(Cl)ccc2c1Cl | -4.8 | -2.9 | -1.0 | -0.6 | -0.6 | -1.4 | 0.1 | x
S=c1[nH]c2ccccc2c2ccccc12 | 3.8 | 4.7 | -0.1 | 12.5 | -1.6 | -0.7 | -1.0 | 2.9
CCc1cc(C(=O)Nc2ccc(S(=O)(=O)NC3=NCCCCC3)cc2)sc1C | -2.9 | 4.1 | u | -21.3 | -4.4 | 0.7 | 0.8 | 0.6
O=C1Nc2ccc(C(F)(F)F)cc2N2CCCC12 (stereo unspecified) | 2.3 | x | 0.5 | -2.5 | 6.5 | 1.5 | -0.6 | x
O=C1C(=Nc2cccc(Cl)c2)CC(c2ccc(Cl)cc2)N1c1cccc(Cl)c1 (stereo unspecified) | 10.9 | 10.3 | -5.4 | -1.4 | -4.7 | 0.6 | 3.9 | -2.2
Cc1ccc(NC(=O)CCN2C(=O)c3ccccc3S2(=O)=O)cc1F | 5.3 | 1.4 | -0.5 | -1.9 | 4.3 | 0.4 | -0.7 | 4.0
N#Cc1ccccc1Sc1ccccc1N | -10.6 | -6.4 | 14.0 | -14.6 | 0.1 | 0.5 | -0.8 | 1.3
CC1=C(C)/C(=N\OS(=O)(=O)c2ccccc2)C=CC1=O | 113.2* | 41.0 | 4.2 | 4.6 | 54.8* | -1.3 | -0.6 | x
Cc1occc1-c1nnc(SCC(=O)N2CCCCC2)o1 | -1.6 | -1.9 | -3.1 | 3.1 | -5.4 | -0.3 | -7.2 | 3.7
O=C(C1=C[C@@H](C2CCCCC2)C[C@@H](OCCCCO)O1)N1CCOCC1 | 1.6 | -6.9 | 2.3 | -15.3 | 2.6 | -0.2 | -1.4 | 5.5
O=C(c1ccc(Br)o1)N(Cc1ccccc1)c1ccccn1 | -6.8 | -2.5 | 4.0 | 2.8 | -11.2 | 0.0 | -3.2 | 1.4
N/C(COc1ncn(-c2ccccc2)n1)=N\S(=O)(=O)c1ccc(Cl)cc1Cl | 3.0 | -8.0 | -1.1 | 16.8 | -8.2 | -1.3 | 1.2 | 3.0
CC(=O)N1c2ccc(S(=O)(=O)NCCC(=O)N(C)Cc3ccccc3)cc2CC1C (stereo unspecified) | 2.7 | 3.0 | 3.3 | -3.0 | -9.4 | 0.3 | 0.9 | -0.2
CC1CCC(NC(=O)COC(=O)C2CC3CCCC(C2)C3=O)CC1 (stereo unspecified) | -8.3 | -1.9 | x | -5.1 | 2.4 | 1.4 | -4.5 | 0.6
CCOC(=O)c1ccccc1NC(=O)c1cccnc1 | 3.6 | -19.4 | 2.1 | -4.5 | 15.3 | 0.1 | 0.0 | 2.7
O=C(O)c1cccc(COc2ccccc2Cl)c1 | 2.8 | -2.2 | 1.5 | 3.6 | 2.5 | 0.3 | -6.0 | 1.3
COc1ccc(N/C(C)=C2/C(=O)C(=O)N(CCO)C2c2ccc([N+](=O)[O-])cc2)cc1 (stereo unspecified) | 1.9 | 2.0 | 3.9 | -1.4 | -9.9 | 0.2 | -1.2 | 2.8
CN(C)c1cccc(C(=O)OCC(=O)Nc2ccccc2-c2ccccc2)c1 | -3.7 | -7.2 | 2.9 | -22.1 | -11.3 | -0.7 | x | -90.7
O=[N+]([O-])c1ccc(C(=S)N2CCN(c3ccc(F)cc3)CC2)cc1 | -0.8 | -2.6 | 0.9 | -26.1 | 11.7 | 0.3 | -1.7 | 3.2
CCn1c(SCC(=O)c2[nH]c(C)c(C(C)=O)c2C)nnc1-c1ccncc1 | -9.4 | -9.5 | 0.1 | 7.1 | -12.5 | 0.3 | 6.5 | 6.8
COc1ccccc1C(=O)NCCNC(=O)c1ccco1 | -4.6 | 2.4 | -2.2 | 3.7 | -3.8 | 0.8 | 2.7 | 1.9
COc1ccc2[nH]c(C(O)(Cc3cccnc3)Cc3cccnc3)cc2c1 | -1.5 | -0.8 | 1.6 | 20.1 | 57.5* | -0.4 | 2.2 | 4.1
Cn1c2c(c(=O)n(C)c1=O)C(c1ccccc1Cl)C(C#N)=C(N)O2 (stereo unspecified) | -0.1 | -4.4 | -5.7 | 2.3 | -20.8 | 0.0 | 1.0 | 7.5
O=C(COC(=O)c1cc(=O)[nH]c2ccccc12)Nc1nc(-c2cccc(Br)c2)cs1 | -0.2 | 6.1 | u | 8.4 | 2.5 | -0.7 | 1.5 | x
COCCn1c(=S)[nH]c2cc(C(=O)NCCc3ccc(OC)c(OC)c3)ccc2c1=O | -4.0 | 7.8 | 6.1 | -5.9 | -3.5 | 0.3 | 2.1 | 2.4
O=C(CN1C(=O)C2C3CCC(C3)C2C1=O)N1CCN(Cc2ccccc2)CC1 (stereo unspecified) | -4.2 | -0.6 | 3.6 | -12.2 | 5.6 | 0.4 | 2.8 | 0.7
Cn1c(=O)c(C(=O)CN2CCOCC2)c(N)n(Cc2ccccc2)c1=O | 1.1 | -1.0 | 3.0 | -1.5 | -16.3 | 0.1 | -3.7 | 3.5
CC1(C)CC(N(Cc2ccc(F)cc2)C(=O)c2ccc(F)cc2)CCO1 (stereo unspecified) | -4.9 | -0.4 | 0.4 | -0.2 | -7.6 | -0.3 | 1.0 | 1.7
COc1ccc(-n2c(Cc3cccn3C)nnc2SCC(=O)Nc2cc(Cl)ccc2OC)cc1 | -4.7 | -14.3 | u | -1.3 | -8.0 | 1.6 | -3.9 | 4.7
O=C1NC[C@H](Cc2ccc(O)cc2)N(CC2CCCCC2)C1=O | 5.9 | 3.8 | 1.4 | 9.7 | -1.6 | -0.2 | 0.9 | -0.7
O=C(C1=C(O)C(=O)N(CCCn2ccnc2)C1c1ccc(F)cc1)c1ccco1 (stereo unspecified) | x | -5.5 | 4.3 | 3.4 | -15.5 | -0.4 | -0.4 | x
CCOC(=O)CN1C(=O)c2ccccc2Sc2ncccc21 | 2.4 | -4.4 | 1.7 | -0.4 | -1.9 | u | 1.7 | 2.6
CC1CCCCC1NC(=O)c1cccc(S(=O)(=O)N2CCN(C)CC2)c1 (stereo unspecified) | -1.6 | 0.3 | -0.8 | -11.0 | -1.5 | 0.0 | -1.0 | 3.2
Cc1ccc(C2(c3ccc(C)cc3)NC(=O)N(CC(=O)NCCCN3CCCC3=O)C2=O)cc1 | 4.1 | 6.5 | x | x | x | 0.1 | 1.2 | x
COc1ccccc1NC(=O)c1cnc(SC)nc1 | x | 0.7 | -5.1 | -1.7 | -10.0 | -1.3 | 1.6 | 4.8
C=CCn1c(-c2cccs2)nc2ccccc21 | -5.8 | -6.8 | x | x | x | 0.8 | -6.6 | -18.0
CC(=O)n1cc(/C=N/NC(N)=S)c2ccccc21 | 9.6 | -9.2 | 8.1 | 3.7 | -18.1 | 1.7 | 1.7 | x
COCC(=O)N1CCCC(N(C)CCc2ccc(OC)c(OC)c2)C1 (stereo unspecified) | 0.1 | 1.8 | -0.3 | 6.4 | 39.9 | 1.6 | -0.2 | 1.7
CCn1cc(S(=O)(=O)c2cccc(C)c2)c(=O)c2cc(F)c(N3CCN(C)CC3)cc21 | -6.1 | 1.8 | 5.9 | -2.2 | 0.9 | -0.3 | 4.7 | -76.3
Cc1ccc(C)c(NC(=O)CCc2ccc(C)o2)c1 | 3.2 | -7.8 | 7.1 | -6.1 | -7.6 | 0.3 | 2.4 | 5.0
CCn1c(SCC(=O)Nc2nc(C)c(C(=O)OC)s2)nnc1C(C)C | 2.5 | -2.8 | -1.5 | 0.8 | 0.4 | 1.2 | 0.0 | 7.1
CC1OC(OCC2OC(Oc3c(-c4ccc(O)cc4)oc4cc(O)cc(O)c4c3=O)C(O)C(O)C2O)C(O)C(O)C1O (stereo unspecified) | 2.2 | -1.4 | -8.3 | -7.7 | 2.1 | -0.1 | + | 10.6
COc1ccc2nc(SCC(=O)Nc3nccs3)[nH]c2c1 | -10.2 | 23.9 | -0.4 | -10.3 | -8.1 | 1.1 | -0.1 | 0.6
CCCCN(C(=O)NC(=O)Nc1cc(C)ccc1C)S(C)(=O)=O | -1.2 | 1.3 | -1.1 | 1.8 | -11.7 | -1.5 | -1.8 | -0.2
CC1(NC(=O)CCS(=O)(=O)c2ccc(Cl)cc2)CCS(=O)(=O)C1 (stereo unspecified) | 0.0 | -1.8 | x | x | x | 0.6 | -0.5 | 1.4
CCOC(=O)c1c[nH]n(-c2ccc(C)cc2)c1=O | 2.3 | -5.2 | -2.7 | -6.7 | -19.2 | 0.5 | -3.3 | 0.4
Cc1ccc(CNC(=O)Cn2c(=O)c3sccc3n(Cc3cccc([N+](=O)[O-])c3)c2=O)cc1 | -2.7 | x | -3.1 | 3.1 | 27.3 | 0.5 | -3.0 | x
O=C(CSc1nnc(Cn2c(=O)sc3ccccc32)n1-c1ccccc1)NCc1ccco1 | 3.2 | 6.6 | x | x | x | 0.4 | -3.9 | 1.0
O=[N+]([O-])c1ccc(N2CCN(c3ccc(Cl)nn3)CC2)c(Cl)c1 | 4.2 | -4.3 | 0.7 | -0.9 | 2.9 | 0.5 | -2.9 | 0.5
CC(C)CC(=O)N1CCN(c2ccc([N+](=O)[O-])c(NCc3ccccc3)c2)CC1 | 42.0 | 3.1 | 2.3 | -2.2 | 18.1 | 0.4 | 5.8 | 6.4
NC(=S)N/N=C\c1ccccc1OCc1ccccc1 | 1.6 | -11.4 | -2.7 | -7.4 | 55.0* | 2.3 | 2.1 | x
CC1CN(S(=O)(=O)c2cc(C(=O)N(CCc3ccccc3)Cc3ccccc3)ccc2Cl)CC(C)O1 (stereo unspecified) | 13.7 | 6.8 | -2.2 | -5.5 | 49.4 | 0.4 | 1.3 | -3.5
CCOc1ccc(CCN2C(=O)CCC2(C)C(=O)NC(C)CC)cc1OCC (stereo unspecified) | 3.4 | -1.7 | 3.2 | 26.3 | -0.9 | -0.8 | 0.8 | 6.8
O=C(O)c1cccc(S(=O)(=O)Nc2ccc([N+](=O)[O-])cc2O)c1 | 0.6 | -1.1 | -2.0 | 1.6 | 2.5 | 0.6 | -2.5 | 8.9
